# Screening data (PubChem BioAssay)
# CDC25B-CDK2 inh = primary biochemical HTRF screen for blockers of M-phase inducer phosphatase 2 binding to CDK2/cyclin A; P30305+P24941; HTRF CDC25B-CDK2/CyclinA binding, anti-His/anti-Flag; stronger effect = higher value; z-score (concentration not given with the values); actives 0.72% (n = 94,000);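 further: score is relative to mean and SD of negative controls; strong numbers were not always called active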
# HIV TAR-Tat = TAR RNA-Tat peptide displacers, HIV-1, primary screen, biochemical, FRET, FAM/TAMRA-labeled Tat | HIV-1 TAR RNA, Tat peptide displacement FRET; stronger effect = higher value | z-score (test concentration not listed) | actives 0.6% (n = 100,000);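 further: score is relative to mean and SD of negative controls; some compounds called inactive have numbers as strong as hits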
# The depositor's hits bear a star; . = no result given.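 How the source made its calls: active means z-score from 3 up in half or more of its runs; inactive means the rest.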
SMILES,CDC25B-CDK2 inh,HIV TAR-Tat
CCOC(=O)CNC(=O)Nc1ccc2nc(NS(C)(=O)=O)sc2c1,.,1.25
COc1ccc(Cn2c(SCc3cccc(OC)c3)nc3ccncc32)cc1,-1.95,1.03
CC(=O)OCC(=O)C1(O)CCC2C3CCC4=CC(=O)C=CC4(C)C3C=CC21C (stereo not drawn),-1.8,.
COCCCNc1nc(NCc2cc(OC)ccc2OC)c2cnn(C)c2n1,.,0.74
S=C(Nc1cc(Cl)c(Cl)cc1Cl)NC(c1ccccc1)c1ccccc1,-0.24,.
CCCNC(=O)NCc1ccc2ncccc2c1,.,-0.15
CCOc1ccc(NC2SC(=O)N(CCC(=O)O)C2=O)cc1 (stereo not drawn),-0.16,.
COc1cccc(C2C(C(=O)OC(C)C)=C(C)NC3=C2C(=O)CC(C)(C)C3)c1OC (stereo not drawn),-0.76,-1.24
C=Cc1ccc(Cn2c(C)c(CNC3CCCC3)c(C(=O)O)c2C)cc1,0.77,0.8
CN1CCN(c2nc3c(S(=O)(=O)c4ccccc4)nnn3c3ccsc23)CC1,.,-0.44
CCNC(=O)NC1CCN(c2nc(C)cc(C)n2)CC1,-1.4,1.34
Cc1c(CN2CCC(N3CCCCC3)CC2)sc2ccccc12,-0.23,.
Cc1ccc2c(C)nc(Nc3ncc4c(n3)CCCC4=O)nc2c1,0.04,3.88
CCOC(=O)c1c(C)[nH]c(C)c1S(=O)(=O)N1CCC(c2ccccc2)C1 (stereo not drawn),.,0.07
O=C1CCCC2=C1C(c1ccccc1F)n1nc(SCc3ccccc3)nc1N2 (stereo not drawn),-2.41,0.13
O=C(CC1Sc2ccccc2NC1=O)Nc1ccc(Cl)cc1 (stereo not drawn),-1.71,-0.9
CCS(=O)(=O)n1nc(-c2ccco2)nc1NCc1cccc(Br)c1,0.43,0.52
COc1cc(C)c(S(=O)(=O)Nc2cccc(-c3ccc(N4CCCC4)nn3)c2)cc1C,.,1.06
CN1C(=O)C(C)(C)c2cc(S(=O)(=O)N3CCN(c4ccccn4)CC3)ccc21,.,-0.11
CCOC(=O)Cc1csc(NC(=O)C2CCN(c3ncnc4onc(C)c34)CC2)n1,.,1.93
COc1ccc(-c2noc(COc3ccc4c(c3)CCCC4)n2)cc1,0.45,0.75
N[C@H](CO)C(=O)O,-0.64,.
C=CCC(O)(c1ccc(O)cc1)C(CN1CCCCC1)c1ccccc1 (stereo not drawn),-1.63,-0.82
O=c1[nH]c2ncccc2c(=O)n1Cc1ccccc1Cl,-0.25,0.45
CCc1nc(-c2csc(S(=O)(=O)Nc3ccc(OC)c(Cl)c3)c2)no1,.,-0.6
CCOC(=O)c1cn[nH]c1S(=O)(=O)N1CCCc2ccccc21,.,-0.06
COc1ccc2c(=O)cc(-c3cc(Br)cc4c3OCOC4)oc2c1,0.5,0.81
O=C(O)c1nc(-c2ccccc2)n(-c2ccccc2)n1,-1.02,.
CCOC(=O)c1cc2n(n1)C(C(F)(F)F)CC(c1ccccc1)N2 (stereo not drawn),-1.23,1.33
Cc1nc(-c2ccc(C)c(S(=O)(=O)Nc3ccc(Cl)cc3F)c2)cs1,.,1.67
COc1ccc(Cn2c(SCc3cc(=O)n4cc(Cl)ccc4n3)nc3nccnc3c2=O)cc1,-2.35,1.33
CCOC(=O)CNC(=O)CC(=O)OCC,-1.57,.
CC1CN(C(=O)CCC(=O)NCc2cccs2)c2cc(Cl)ccc2O1 (stereo not drawn),-2.08,-0.06
CC(=O)C(Sc1ccc2nnc(-c3ccc(C)cc3)n2n1)C(C)=O,-1.99,.
Cc1cccc(Nc2nc(Nc3ccccc3)c3cnn(C)c3n2)c1,.,0.32
Cc1ccc(C)c(NS(=O)(=O)c2ccc(-c3cnc(C)o3)cc2)c1,.,0.93
CCCN1CCN(C(=O)C2CCCN2c2nnc(N3CCCC3=O)s2)CC1 (stereo not drawn),.,1.68
O=C(COCc1cc(-c2cccs2)on1)NC1CCCc2ccccc21 (stereo not drawn),.,-2.01
CC(=O)N1c2c(cc(Br)cc2S(=O)(=O)N2CCCC(C)C2)CC1C (stereo not drawn),0.68,.
O=C(Cn1ncn2nc(-c3ccco3)cc2c1=O)NCc1cccs1,-2.66,-0.56
Cc1nc(NCCN2CCOCC2)cc(-c2ccccc2)n1,-1.16,-0.58
COC(=O)C1=C(C)NC(C)=C(C(=O)OCCCN2CCC(c3ccccc3)(c3ccccc3)CC2)C1c1cccc([N+](=O)[O-])c1 (stereo not drawn),.,1.72
CN1CCN(c2ncnc3c2nc2n3CCCC2)CC1,.,1.55
Cc1cc(C)c(C#N)c(SS(=O)(=O)c2nc(C)cc(C)c2C#N)n1,-1.16,.
CCCCn1c(C)c(C)c2c1ncn1nc(-c3ccc(OC)cc3)nc21,-2.33,1.57
COc1ccc(-c2nnn3c2nc(NCc2ccccc2)c2ccccc23)cc1,-1.75,1.43
COC(=O)c1ccc(C2Nc3ccccc3NC3=C2C(=O)CC(C)(C)C3)cc1 (stereo not drawn),-0.71,2.51
COc1ccc(-n2cc(-c3ccccc3)c3c(NCc4ccccc4)ncnc32)cc1,-1.08,.
Cc1ccc(C)c(S(=O)(=O)N2CCN(c3cc(-c4ccccc4)ncn3)CC2)c1,.,2.32
O=C1CCCc2cc(S(=O)(=O)N3CCN(c4ccccn4)CC3)ccc2N1,.,0.61
COc1cc(NC(=O)CC2=NS(=O)(=O)c3ccccc3N2)cc(OC)c1,.,0.94
COc1ccc(NC(=O)CC2C(=O)N(C)C(=S)N2Cc2ccco2)cc1 (stereo not drawn),-2.12,.
Clc1ccccc1-n1ncnc1-c1ccc(Br)cc1,-0.18,1.45
Cc1nn(CC(=O)NC2CCCC(C)C2C)c(=O)c2cc3cc(F)ccc3n12 (stereo not drawn),0.71,0.38
CC(Oc1ccccc1-c1ccccc1)c1n[nH]c(=S)n1C (stereo not drawn),-2.07,.
CCCSCCCNC(=O)C1CCCN1c1nnc(N2CCCC2=O)s1 (stereo not drawn),-1.03,2.84
CCN1CCn2c(nc3ccccc32)C1,-1.66,-0.39
Cn1nnc2c(NC3CCCC3)ncnc21,.,2.04
CN1CCN(CCCNC(=O)c2ccc3c(=O)n4c(nc3c2)CCCCC4)CC1,0.19,.
COc1cc(CNCCSc2nnnn2C)ccc1OCc1ccccc1F,-1.15,-0.46

# Going on with the list:
SMILES,CDC25B-CDK2 inh,HIV TAR-Tat
CC(C)(C)OC(=O)NCC(=O)NNC(=S)Nc1ccccc1,-1.31,.
Cc1cc(N2CCC(C(N)=O)CC2)nc2cc(O)ccc12,-2.29,1.58
CC(C)CC(=O)NCC(c1ccco1)S(=O)(=O)c1ccc(F)cc1 (stereo not drawn),.,-0.43
Cc1cc(C(=O)O/N=C(\N)c2c(-c3c(Cl)cccc3Cl)noc2C)no1,-0.65,.
CSc1n[nH]c(=O)c2cc(C)nn12,-1.05,.
Cn1c(=O)sc2cc(NC(=O)Cn3c(=O)oc4ccccc43)ccc21,7.49*,1.7
C=CCNC(=O)C1=CC(c2cc(OC)ccc2OC)=NS(=O)(=O)N1C,-2.51,1.51
O=C(O)c1ccc(CNCc2ccc3c(c2)OCO3)s1,-0.21,1.21
COc1cc2[nH]c(=S)nc(NCCc3ccc(S(N)(=O)=O)cc3)c2cc1OC,-1.45,.
O=c1c2c(nc3nc(NCc4cccs4)[nH]n13)CCCC2,-1.02,-0.28
COc1ccc(-c2nnc(SCCOc3ccc(C)cc3OC)o2)cc1,-0.18,-0.21
Cc1c2n(c3ccccc13)CC/C2=N\Nc1ccc(Cl)cc1Cl,-0.62,.

# At a glance, part of the list above.
SMILES,CDC25B-CDK2 inh,HIV TAR-Tat
Cc1nn(CC(=O)NC2CCCC(C)C2C)c(=O)c2cc3cc(F)ccc3n12 (stereo not drawn),0.71,0.38
CC(Oc1ccccc1-c1ccccc1)c1n[nH]c(=S)n1C (stereo not drawn),-2.07,.
CCCSCCCNC(=O)C1CCCN1c1nnc(N2CCCC2=O)s1 (stereo not drawn),-1.03,2.84
CCN1CCn2c(nc3ccccc32)C1,-1.66,-0.39
Cn1nnc2c(NC3CCCC3)ncnc21,.,2.04
CN1CCN(CCCNC(=O)c2ccc3c(=O)n4c(nc3c2)CCCCC4)CC1,0.19,.
COc1cc(CNCCSc2nnnn2C)ccc1OCc1ccccc1F,-1.15,-0.46
CC(C)(C)OC(=O)NCC(=O)NNC(=S)Nc1ccccc1,-1.31,.
Cc1cc(N2CCC(C(N)=O)CC2)nc2cc(O)ccc12,-2.29,1.58
CC(C)CC(=O)NCC(c1ccco1)S(=O)(=O)c1ccc(F)cc1 (stereo not drawn),.,-0.43
Cc1cc(C(=O)O/N=C(\N)c2c(-c3c(Cl)cccc3Cl)noc2C)no1,-0.65,.
CSc1n[nH]c(=O)c2cc(C)nn12,-1.05,.
Cn1c(=O)sc2cc(NC(=O)Cn3c(=O)oc4ccccc43)ccc21,7.49*,1.7
C=CCNC(=O)C1=CC(c2cc(OC)ccc2OC)=NS(=O)(=O)N1C,-2.51,1.51
O=C(O)c1ccc(CNCc2ccc3c(c2)OCO3)s1,-0.21,1.21
COc1cc2[nH]c(=S)nc(NCCc3ccc(S(N)(=O)=O)cc3)c2cc1OC,-1.45,.
O=c1c2c(nc3nc(NCc4cccs4)[nH]n13)CCCC2,-1.02,-0.28

# Next part
SMILES,CDC25B-CDK2 inh,HIV TAR-Tat
C=CCn1c(SCc2ccc(Cl)cc2)nc2cc(C(=O)N3CCC(C(N)=O)CC3)ccc2c1=O,.,1.88
CCN(CC)CCCn1c(-c2ccc(Cl)cc2)cn2c3ccccc3nc12,-0.32,.
NC(=O)c1nc(-c2ccc(F)cc2)nc2c1[nH]c(=O)n2-c1ccccc1,-0.69,.
Cc1ccc(/C(O)=C2/C(=O)C(=O)N(CC(C)O)C2c2ccccn2)cc1 (stereo not drawn),-0.53,0.66
N#CC1=C(N)Oc2n[nH]c(-c3ccc4c(c3)OCO4)c2C1c1cccc(O)c1 (stereo not drawn),-2.98,1.17
O=C(/C=C/c1cccc2ccccc12)N1CCCCC1,-1.04,.
Cc1oc(-c2ccc(OC(C)C)cc2)nc1CSc1nc2ncccc2o1,.,-1.32
N#CNC(N)=NCc1ccccc1,0.04,.
CC1=C(c2ccc(Cl)cc2)S(=O)(=O)NC1=NCCc1ccccc1,-7.56,-0.03
Cc1nn(-c2ccccc2)cc1/C=N/n1c(-c2ccncc2)n[nH]c1=S,0.67,.
CCN1C(C(=O)Nc2ncccn2)=C(O)c2ccccc2S1(=O)=O,-1.37,1.2
CC1CCc2nn(CC(=O)NCCN3CCCCC3C)cc2C1 (stereo not drawn),0.79,-1.17
O=C(CCCc1nnc2c(=O)n(-c3ccc(Cl)cc3)ccn12)NCc1cccs1,.,1.34
CC(=O)Nc1nc(-c2ccccc2)nc2c1c(=O)oc1ccccc12,-1.29,.
Cc1nc(C)c(-c2nnc(-c3ccc(C(F)(F)F)cc3)o2)s1,-1.38,.
O=C(CC(=O)C(F)(F)F)c1cccs1,.,2.1
COc1ccc(C2NC(=S)NC3=C2C(=O)CCC3)cc1 (stereo not drawn),-1.26,.
COc1ccc(S(=O)(=O)NC(C)c2ccccc2)cc1-c1nnc2c3ccccc3c(C)nn12 (stereo not drawn),2.44,1.83
O=C1CNC23CCCCC2C(c2ccccc2O3)C1C(=O)Nc1ccccc1 (stereo not drawn),0.58,.
CC(C)NC(=O)CCC(=O)N1Cc2ccccc2Oc2ncccc21,.,1.43
CCc1cc2c(=O)[nH]c(CS(=O)(=O)c3ccc(Cl)cc3)nc2s1,-2.62,-6.3
CC1Cc2cc(S(=O)(=O)N3CCN(c4ccc(Cl)cc4)CC3)ccc2N1C(=O)C1CCC1 (stereo not drawn),.,1.1
COCCCN1C(=O)C(=O)/C(=C(/O)c2ccccc2)C1c1ccc2c(c1)OCO2 (stereo not drawn),-0.55,-0.65
CC(C)c1ccc(CNCCSc2nnnn2-c2ccccc2)cc1,-1.11,1.04
CC(=O)N1CCOc2ccc(S(=O)(=O)NC3CCCCC3C)cc21 (stereo not drawn),-1.86,2.22
Cc1c(C(=O)NCCC2=CCCCC2)oc2ccc(S(=O)(=O)N3CCOCC3)cc12,-0.22,.
Cc1ccc(N2C(=O)C3C4C=CC(CC4)C3C2=O)c(Br)c1 (stereo not drawn),-0.71,0.26
CCCCOc1ccc(-c2nnc(N)s2)cc1,-2.43,1.05
Cc1cc(C)c2c(c1)-c1cc(C)nn1C(c1sccc1C)N2 (stereo not drawn),-0.58,2.84
O=C(Nc1ccc(Br)cc1)c1cc(-c2ccc3c(c2)OCCO3)on1,-0.24,-0.42
COc1cccc(-c2n[nH]c3c2C(c2cccc(Br)c2)NC3=O)c1 (stereo not drawn),0.37,1.12
Cc1ccc(-n2nc(C)c3c(C)cc(=O)n(Cc4ccc5nonc5c4)c32)cc1,.,-1.06
CCC1Sc2ccc(S(=O)(=O)CCC(=O)N3CCN(CC)CC3)cc2NC1=O (stereo not drawn),.,0.42
O=C1c2ccccc2C2=Nc3ccccc3OC12O (stereo not drawn),-2.63,.
CCN1C(C(=O)OC)=C(OC(=O)c2ccccn2)c2ccccc2S1(=O)=O,1.91,0.86
O=C1CC(c2cccs2)CC2=C1C(c1cccc(O)c1)Nc1ccccc1N2 (stereo not drawn),0.05,4.25
CCOc1ccc(CCNc2ccc3nnc(-c4ccccc4)n3n2)cc1OCC,-0.3,-2.99
CCCC12CN3CC(C)(CN(C1)C3c1cccs1)C2=O (stereo not drawn),-0.9,.
CC1=C(c2ccc(Cl)cc2)S(=O)(=O)NC1=NCCC1=CCCCC1,-2.34,1.7
Cc1cccc(Nc2nc(NCCN3CCOCC3)nc(N)c2[N+](=O)[O-])c1,.,0.84
Cn1cc(S(=O)(=O)N2CCc3ccccc32)cc1C(=O)NC1CC1,.,1.15
CN(C)c1ccc(NC(=O)CC2Sc3ccccc3NC2=O)cc1 (stereo not drawn),-4.1,0.95
CCN(Cc1ccccc1)c1ncnc2c1cnn2-c1ccc(C)cc1,.,1.57
